Env fusion inh = inhibitors of HIV-1 Env-driven cell-cell fusion, primary screen, HeLa-JRFL effector, CEM21 target cells, luciferase | 360,000 tested, 1.1% active | AID 651610, 2012 | inhibition, % at 12.3 µM;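 active = mean replicate inhibition score of at least 50 and every replicate individually at or above 50; inconclusive = only one of the two criteria met; inactive = mean below 50 and not all replicates reaching 50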;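 also: 0% = plate neutral controls and 100% = maraviroc near 300 nM; one replicate is shown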
Yeast UUG start = modulators of yeast start codon fidelity, primary screen, whole organism, S. cerevisiae, single point, plate reader | 350,000 tested, 0.13% active | S. cerevisiae UUG-firefly luciferase reporter, luminescence/redox ratio | activity score, % at 18.7 µM | AID 602363, 2012;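 active = replicate mean at a twofold rise or more, about +100% in these data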;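 also: firefly luciferase made from a UUG start codon reports start codon fidelity; reporter light over untreated wells divided by growth signal over untreated wells; some hits fall short of that in this replicate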
* marks the source's active call; other numbers are inactive results; ? = inconclusive; [ ] = another dose, or the depositor's remark. The list is partial. The share of hits here may be higher or lower than overall.

smiles	Env fusion inh	Yeast UUG start
O=C(C[C@H]1C=C[C@H](NC(=O)Nc2ccccc2)[C@H](CO)O1)NCc1cccc(F)c1	-1[16.7 µM]	13
CO[C@@H]1CN(C)C(=O)c2ccc(NC(=O)Nc3ccccc3)cc2OC[C@@H](C)N(C(=O)CC2CC2)C[C@@H]1C	-13[16.7 µM]	7
CC(C)=CCC/C(C)=C/CNC(=O)C[C@H]1C[C@H](C(=O)N2CCCCC2)[C@@]2(CCc3ccccc3)c3[nH]c4cc(CCC(=O)N(C)C)ccc4c3CCN2C1=O	-74	-22
C[C@H]1CCCCO[C@H](CN(C)Cc2ccc(C(=O)O)cc2)[C@@H](C)CN([C@@H](C)CO)C(=O)c2cc(NS(C)(=O)=O)ccc2O1	26[16.7 µM]	7
COc1ccc(NC(=O)Nc2ccc3c(c2)CC(=O)N([C@H](C)CO)C[C@@H](C)[C@H](CN(C)CC2CCCCC2)O3)cc1	8[16.7 µM]	5
COc1ccc(NC(=O)Nc2ccc3c(c2)CC(=O)N([C@@H](C)CO)C[C@H](C)[C@H](CN(C)C(=O)Nc2cccc4ccccc24)O3)cc1	28[16.7 µM]	-2
COc1ccccc1-c1cnc2c(c1)C(=O)N([C@H](C)CO)C[C@H](C)[C@H](CN(C)Cc1cccc(F)c1)O2	-9[16.7 µM]	2
C[C@@H]1CN([C@H](C)CO)C(=O)c2cc(NC(=O)Nc3ccccc3)ccc2O[C@@H](C)CCCCO[C@@H]1CN(C)S(=O)(=O)c1cn(C)cn1	-17[16.7 µM]	7
C[C@H]1CN([C@@H](C)CO)S(=O)(=O)c2ccc(-c3ccccc3F)cc2O[C@H]1CN(C)Cc1cncnc1	17[16.7 µM]	-7
COc1ccc(S(=O)(=O)Nc2ccc3c(c2)C(=O)N([C@@H](C)CO)C[C@H](C)[C@H](CN(C)C(=O)NC(C)C)O3)cc1	-89[16.7 µM]	3
C[C@H]1CN([C@@H](C)CO)C(=O)c2cccc(NS(=O)(=O)c3cccs3)c2O[C@H]1CN(C)S(C)(=O)=O	-2[16.7 µM]	-3
O=C(NCC[C@@H]1CC[C@@H](NS(=O)(=O)c2cccc(F)c2)[C@H](CO)O1)c1cnccn1	13[16.7 µM]	-7

Continuation:
smiles	Env fusion inh	Yeast UUG start
COc1ccc(NC(=O)Nc2ccc3c(c2)C(=O)N([C@@H](C)CO)C[C@H](C)[C@@H](CN(C)S(=O)(=O)c2cn(C)cn2)O3)cc1	8[16.7 µM]	-16
CN(C)C(=O)C[C@H]1CC[C@@H](NC(=O)NC2CCCCC2)[C@H](CO)O1	0[16.7 µM]	6
C[C@H]1CN([C@@H](C)CO)C(=O)Cc2cc(NC(=O)Nc3ccc4c(c3)OCO4)ccc2O[C@H]1CN(C)C(=O)NC1CCCCC1	-33[16.7 µM]	15
C[C@@H]1CN([C@@H](C)CO)C(=O)c2cc(NS(=O)(=O)c3ccc(F)cc3)ccc2O[C@@H](C)CCCCO[C@@H]1CN(C)C	-14[16.7 µM]	7
CO[C@@H]1CN(C)C(=O)c2cc(NS(=O)(=O)c3ccc(Cl)cc3)ccc2OC[C@H](C)NC[C@@H]1C	8[16.7 µM]	-2
CC(C)NC(=O)Nc1ccc2c(c1)C(=O)N([C@H](C)CO)C[C@H](C)[C@@H](CN(C)C(=O)Nc1cccc3ccccc13)OCCCC[C@H](C)O2	26[16.7 µM]	1
C[C@@H]1CN([C@H](C)CO)C(=O)c2cc(NC(=O)Nc3ccccc3)ccc2O[C@H]1CN(C)S(=O)(=O)c1cn(C)cn1	3[16.7 µM]	7
COCC(=O)N(C)C[C@@H]1Oc2cc(-c3ccncc3)ccc2S(=O)(=O)N([C@H](C)CO)C[C@H]1C	11[16.7 µM]	-8
C[C@H]1CN([C@@H](C)CO)C(=O)c2cc(C#CC(C)(C)O)cnc2O[C@H]1CN(C)C(=O)CN(C)C	-6[16.7 µM]	0
CC(=O)N[C@H]1CC[C@H](CCNC(=O)Nc2ccc(C(F)(F)F)cc2)O[C@H]1CO	16[16.7 µM]	4
C[C@@H]1CCCCO[C@@H](CN(C)S(=O)(=O)c2ccc(F)cc2)[C@H](C)CN([C@@H](C)CO)C(=O)c2cc(NS(=O)(=O)c3ccc(Cl)cc3)ccc2O1	-3[16.7 µM]	3
C[C@@H]1CN([C@@H](C)CO)C(=O)c2cc(C3=CCCCC3)cnc2O[C@H]1CN(C)Cc1cccnc1	-15[16.7 µM]	6

Next results
smiles	Env fusion inh	Yeast UUG start
Cc1noc(C)c1NC(=O)Nc1ccc2c(c1)CC(=O)N([C@H](C)CO)C[C@H](C)[C@H](CN(C)C(=O)Nc1cccc3ccccc13)O2	-5[16.7 µM]	0
COc1ccc(S(=O)(=O)Nc2ccc3c(c2)C(=O)N([C@@H](C)CO)C[C@@H](C)[C@H](CN(C)C(=O)Nc2ccccc2)OCCCC[C@@H](C)O3)cc1	-18[16.7 µM]	15
C[C@H](CO)N1C[C@H](C)[C@H](CN(C)C)Oc2ncc(-c3cccc(C#N)c3)cc2C1=O	-6[16.7 µM]	-7
O=C(CN1CCOCC1)NCC[C@@H]1CC[C@@H](NC(=O)Nc2ccc(Cl)cc2)[C@@H](CO)O1	-16[16.7 µM]	8
C[C@@H]1CN([C@@H](C)CO)C(=O)c2cc(NC(=O)Cc3ccccc3)ccc2O[C@H]1CN(C)Cc1ccncc1	-20[16.7 µM]	7
N#C[C@H]1N[C@H](CO)[C@@H]1c1ccc(C#Cc2cccnc2)cc1	4[16.7 µM]	-14
Cc1noc(C)c1NC(=O)N(C)C[C@H]1Oc2ncc(C#CC3CCCC3)cc2C(=O)N([C@@H](C)CO)C[C@@H]1C	-6[16.7 µM]	20
C[C@H](CO)N1C[C@H](C)[C@@H](CN(C)C(=O)Nc2cccc(F)c2)Oc2ncc(Br)cc2C1=O	-19	9
CCNC(=O)C[C@H]1CC[C@H](NC(=O)NC2CCCCC2)[C@H](CO)O1	3[16.7 µM]	-16
COc1ccc(NC(=O)N(C)C[C@@H]2Oc3ncc(C#CCN(C)C)cc3C(=O)N([C@@H](C)CO)C[C@H]2C)cc1	-7[16.7 µM]	5
C[C@@H]1CN([C@H](C)CO)S(=O)(=O)c2ccc(-c3ccccc3)cc2O[C@@H]1CN(C)Cc1cncnc1	-21[16.7 µM]	-2
O=C(NCC[C@H]1CC[C@H](NS(=O)(=O)c2cccc(F)c2)[C@@H](CO)O1)C1CCOCC1	-8[16.7 µM]	-14

(list continues)
smiles	Env fusion inh	Yeast UUG start
C[C@H]1CN([C@@H](C)CO)C(=O)c2cc(NC(=O)Nc3ccc4c(c3)OCO4)ccc2O[C@H]1CN(C)S(=O)(=O)c1cccs1	57*[16.7 µM]	-6
C[C@@H]1CN([C@@H](C)CO)C(=O)c2cc(NC(=O)Nc3ccc4c(c3)OCO4)ccc2O[C@@H]1CN(C)C(=O)Nc1ccccc1	-4[16.7 µM]	19
C[C@@H]1CN([C@H](C)CO)C(=O)c2cc(-c3ccccc3)cnc2O[C@@H]1CN(C)Cc1ccccc1	10[16.7 µM]	17
N#C[C@@H]1N[C@H](CO)[C@@H]1c1ccc(C#CC2CCCC2)cc1	-4[16.7 µM]	-14
C[C@@H]1CCCCO[C@@H](CN(C)C(=O)c2ccncc2)[C@@H](C)CN([C@@H](C)CO)C(=O)c2cc(NS(=O)(=O)c3ccccc3)ccc2O1	8[16.7 µM]	3
C[C@@H]1CCCCO[C@H](CN(C)S(=O)(=O)c2ccc(Cl)cc2)[C@@H](C)CN([C@H](C)CO)C(=O)c2cc(NC(=O)C3CCCCC3)ccc2O1	13[16.7 µM]	0
C[C@@H]1CN([C@@H](C)CO)S(=O)(=O)c2ccc(-c3cncnc3)cc2O[C@@H]1CN(C)C	11[16.7 µM]	-2
CNC(=O)C[C@@H]1CC[C@@H]2[C@H](COc3ccc(NS(=O)(=O)c4ccccc4C)cc3C(=O)N2C)O1	9[16.7 µM]	-2
COc1ccc(S(=O)(=O)N(C)C[C@H]2OCCCC[C@H](C)Oc3ccc(NS(=O)(=O)c4cccs4)cc3C(=O)N([C@H](C)CO)C[C@@H]2C)cc1	-44[16.7 µM]	-6
C[C@@H]1CN([C@@H](C)CO)C(=O)c2cccc(NC(=O)Nc3ccc4c(c3)OCO4)c2O[C@H]1CN(C)C(=O)Nc1ccc(F)cc1	-24[16.7 µM]	1
C[C@@H]1CN([C@@H](C)CO)C(=O)c2cc(NC(=O)c3ccncc3)ccc2O[C@@H](C)CCCCO[C@@H]1CN(C)C	7[16.7 µM]	-3
C[C@H]1CN([C@@H](C)CO)S(=O)(=O)c2ccc(-c3ccc(C#N)cc3)cc2O[C@H]1CN(C)Cc1cccc(F)c1	31[16.7 µM]	-10

(continued)
smiles	Env fusion inh	Yeast UUG start
COc1cccc(C#Cc2cnc3c(c2)C(=O)N([C@@H](C)CO)C[C@H](C)[C@H](CN(C)C(=O)C2CC2)O3)c1	-4[16.7 µM]	16
C[C@@H]1CN([C@H](C)CO)S(=O)(=O)c2ccc(C#CCN(C)C)cc2O[C@H]1CN(C)C(=O)C1CCC1	-7[16.7 µM]	-6
C[C@H]1CN([C@@H](C)CO)C(=O)Cc2cc(NC(=O)c3ccncc3)ccc2O[C@H]1CN(C)Cc1ccc(C(=O)Nc2ccccc2N)cc1	-225[16.7 µM]	-19
C[C@@H]1CN([C@H](C)CO)C(=O)c2cc(NS(=O)(=O)c3ccc(Cl)cc3)ccc2O[C@@H](C)CCCCO[C@@H]1CN(C)C(=O)CCCN(C)C	6[16.7 µM]	24
CCCN(C)C[C@H]1Oc2ncc(Br)cc2C(=O)N([C@@H](C)CO)C[C@H]1C	1[16.7 µM]	-3
Cc1ccc(S(=O)(=O)N(C)C[C@@H]2OCCCC[C@@H](C)Oc3ccc(NC(=O)Nc4ccccc4)cc3C(=O)N([C@@H](C)CO)C[C@H]2C)cc1	30[16.7 µM]	-23
C[C@@H]1CN([C@@H](C)CO)S(=O)(=O)c2ccc(-c3ccccc3F)cc2O[C@@H]1CN(C)C(=O)C1CC1	11[16.7 µM]	-2
O=C(c1ccccc1)N1Cc2ccccc2[C@H]2OC(c3ccc(OCCCO)cc3)=N[C@@]2(Cc2ccccc2)C1=O	-16[16.7 µM]	-9
CCCC(=O)Nc1ccc2c(c1)C(=O)N(C)C[C@H](OC)[C@@H](C)CN(Cc1cncnc1)[C@H](C)CO2	-1[16.7 µM]	-13
CCCNC(=O)N(C)C[C@H]1Oc2ncc(C3=CCCC3)cc2C(=O)N([C@@H](C)CO)C[C@H]1C	-12[16.7 µM]	-7
C[C@@H]1CN([C@H](C)CO)C(=O)Cc2cc(NC(=O)Nc3cccc4ccccc34)ccc2O[C@@H]1CN(C)S(=O)(=O)c1cccs1	?	6
C[C@@H]1CCCCO[C@H](CN(C)CC2CC2)[C@H](C)CN([C@@H](C)CO)C(=O)c2cc(NC(=O)Nc3cccc4ccccc34)ccc2O1	-15[16.7 µM]	20

Complete entries as entered above. Values in the order: Env fusion inh	Yeast UUG start
CCCN(C)C[C@H]1Oc2ncc(Br)cc2C(=O)N([C@@H](C)CO)C[C@H]1C reads 1[16.7 µM]	-3
Cc1ccc(S(=O)(=O)N(C)C[C@@H]2OCCCC[C@@H](C)Oc3ccc(NC(=O)Nc4ccccc4)cc3C(=O)N([C@@H](C)CO)C[C@H]2C)cc1 reads 30[16.7 µM]	-23
O=C(c1ccccc1)N1Cc2ccccc2[C@H]2OC(c3ccc(OCCCO)cc3)=N[C@@]2(Cc2ccccc2)C1=O reads -16[16.7 µM]	-9
COc1cccc(C#Cc2cnc3c(c2)C(=O)N([C@@H](C)CO)C[C@H](C)[C@H](CN(C)C(=O)C2CC2)O3)c1 reads -4[16.7 µM]	16
C[C@@H]1CN([C@H](C)CO)C(=O)Cc2cc(NC(=O)Nc3cccc4ccccc34)ccc2O[C@@H]1CN(C)S(=O)(=O)c1cccs1 reads ?	6

(listing goes on)
smiles	Env fusion inh	Yeast UUG start
CC(C)C#Cc1cnc2c(c1)C(=O)N([C@@H](C)CO)C[C@@H](C)[C@@H](CN(C)S(=O)(=O)c1cn(C)cn1)O2	-5[16.7 µM]	14
COc1ccc(NC(=O)N[C@H]2CC[C@H](CCNS(=O)(=O)c3cccc(Cl)c3)O[C@H]2CO)cc1	-10[16.7 µM]	14
Cc1ccc(S(=O)(=O)Nc2ccc3c(c2)C(=O)N([C@H](C)CO)C[C@H](C)[C@@H](CN(C)C(=O)c2ccncc2)OCCCC[C@H](C)O3)cc1	3[16.7 µM]	18
C[C@@H]1CN([C@H](C)CO)C(=O)c2cc(NC(=O)C3CC3)ccc2O[C@H]1CN(C)S(C)(=O)=O	31[16.7 µM]	-13
CN(C)C(=O)C[C@H]1CC[C@@H]2[C@H](COc3ccc(NC(=O)c4cnccn4)cc3C(=O)N2C)O1	-2[16.7 µM]	6
C[C@@H]1CN([C@H](C)CO)C(=O)c2cc(-c3ccncc3)cnc2O[C@H]1CN(C)C(=O)Nc1ccc2c(c1)OCO2	8[16.7 µM]	20
CCC(=O)N(C)C[C@H]1Oc2cc(C#CC(C)C)ccc2S(=O)(=O)N([C@@H](C)CO)C[C@H]1C	0[16.7 µM]	-1
C[C@H](CO)N1C[C@H](C)[C@H](CN(C)CC2CC2)Oc2ccc(NS(=O)(=O)c3cn(C)cn3)cc2CC1=O	-5[16.7 µM]	2
C[C@@H]1CN([C@@H](C)CO)C(=O)Cc2cc(NC(=O)CCCCCC(=O)Nc3ccccc3N)ccc2O[C@@H]1CN(C)Cc1ccc2c(c1)OCO2	7[16.7 µM]	-7

Screens: PubChem, Broad Institute
